# RmlCD inh mix = inhibitors of RmlC and RmlD coupled enzymes. inhibition, % at 5.5 µM. 0.39% of 110,000 active. RmlC/RmlD coupled enzyme inhibition, 384-well mixture HTS; in the data active = inhibition above about 30%, passing the limit was not always enough; only retested compounds are shown here; note: strong numbers were not always called active
# RmlCD inh mix retest = also measured in RmlCD inh mix; calls as there; inhibition, %; measured here: mean retest inhibition;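 single compounds in two wells; values far above 100% likely come from compound fluorescence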
# Active calls of the source: *; i = inactive; . = no result given; + = active, no number. The list is partial; rates above refer to the full screens.
SMILES,RmlCD inh mix,RmlCD inh mix retest
Cc1cc(C)n(-c2nc3c(c(=O)[nH]c(=O)n3C)n2Cc2ccccc2)n1,31.1,-8.2
Cc1cccc(-n2ncc3c(N4CCCc5ccccc54)ncnc32)c1,34.2,3.2
COc1cccc(OC)c1C(=O)N1CC(C)OC(C)C1 (stereo not drawn),75.3,-7.6
CCCCOc1cccc(C2(C(=O)O)CCCC2)c1,47.5,5.6
FC(F)(F)c1cc(-c2ccco2)nc(N2CCN(c3ccccc3)CC2)n1,32.5,1.0
c1cncc(C(c2nnnn2C2CCCCC2)N2CCN3CCCC3C2)c1 (stereo not drawn),33.7,4.2
COc1cc(NC(=O)CN2C3CCC2CC(O)(c2cccnc2)C3)cc(OC)c1 (stereo not drawn),43.1,-6.9
COCCNC(=O)C(c1cccs1)N(C(=O)Cn1nnc2ccccc21)c1ccc(OC)cc1 (stereo not drawn),43.5,5.6
O=P(O)(O)C(O)C(F)(F)C(F)(F)C(F)(F)C(F)F (stereo not drawn),71.1,-5.7
CC(=O)Nc1ccc(-c2cc3ccccc3o2)cc1,44.0,-16.8
Cc1cccc(NC(=S)NN2CCN(C)CC2)c1C,43.3,3.8
O=C(/C=C/c1ccco1)NC(=S)Nc1cccc(-c2nc3ccccc3s2)c1,34.6,19.5
COc1ccc(NC(=O)CSc2ccc3c(c2)OCCO3)cc1OC,79.6,6.0
C=CCn1c(SC/C=C/c2ccccc2)nnc1-c1sc(N)nc1C,86.3,7.0
c1coc(C2Nc3ccccc3-c3nc4ccccc4n32)c1 (stereo not drawn),34.8,-69.8
CCn1cc(C(=O)N2CCC3(CC2)OCCO3)c(=O)c2cc(S(=O)(=O)N3CCCC3)ccc21,43.0,-9.3
CCn1c(SCC(N)=O)nnc1-c1ccc2[nH]c(C)c(C)c2c1,47.4,-5.3
Nc1nc2nc(-c3ccc(Cl)cc3)cc(C(F)(F)F)n2n1,85.7,109.4
Nc1scc(-c2ccncc2)c1Cl,45.4,8.2
O=C(CN1CCOCC1)Nc1ccccc1Cl,38.5,-9.4
COc1cc(C)cc(C(=O)O)c1C1=C(O)c2cccc(O)c2C(=O)C1=O,i,7.4
O=C(Nc1sc2c(c1C(=O)NC1CC1)CCCCCC2)c1ccco1,+,98.0*
O=C(Nc1ccccc1)C1(c2ccccc2)CC1(Cl)Cl (stereo not drawn),101.8,-12.8
CC(C)NC(=O)c1ccccc1NC(=O)C1COc2ccccc2O1 (stereo not drawn),178.0,-16.5
COc1ccc(S(=O)(=O)CCC(=O)Nc2ccc(OC)cc2OC)cc1,82.5,1.3
SMILES,RmlCD inh mix,RmlCD inh mix retest
O=C(O)C1CC1C(=O)N1CCN(c2ccc(Cl)c(Cl)c2)CC1 (stereo not drawn),31.1,-6.4
Fc1ccc(C2CC(c3ccc(F)cc3)n3ncnc3N2)cc1 (stereo not drawn),i,1.9
C=COC(=O)CSc1nc(-c2cccs2)ccc1C#N,34.0,-83.1
O=C(Nc1nccs1)c1ccc2nccnc2c1,90.4,0.6
CC(C)C[C@H]1C(=O)N2CCC[C@H]2[C@]2(O)O[C@](NC(=O)C3C=C4c5cccc6[nH]c(Br)c(c56)C[C@H]4N(C)C3)(C(C)C)C(=O)N12 (stereo partly drawn),119.1,-22.0
N#Cc1ccsc1NC(=O)CSc1ncn[nH]1,61.4,0.8
CC(=O)C(C)Oc1cc(C)cc2oc(=O)c(C)c(C)c12 (stereo not drawn),39.4,-21.2
O=C(CSc1nc2ccncc2[nH]1)Nc1ccccc1C(F)(F)F,43.9,0.7
O=C(NCCN1CCCCC1)c1ccc(=O)oc1,47.8*,41.9*
COCCNC(=O)C(c1ccccc1C)N(C(=O)Cn1nnc2ccccc21)c1cccnc1 (stereo not drawn),97.1,-7.5
CCOC(=O)C(C)Oc1ccc(C2NC(=O)NC(C)=C2C(=O)Nc2ccccc2C)cc1 (stereo not drawn),32.7,-9.9
CCOC(=O)CSc1cc(CSc2ccccc2)nc(-c2ccccc2)n1,69.5,-16.4
CC(=O)Nc1c(S(=O)(=O)c2ccccc2)c2nc3ccccc3nc2n1Cc1ccccc1,50.1,-28.8
CCOC(=O)C1CCCN(c2c(NCCN(CC)c3ccccc3)c(=O)c2=O)C1 (stereo not drawn),178.0,-13.5
COC(=O)c1c(S(N)(=O)=O)c2ccccc2n1C,60.9,0.2
CNC(=O)C1CC(=O)N(CCc2ccc(OC)cc2)C(=Nc2ccc(OC)cc2)S1 (stereo not drawn),63.8,-1.4
CC1C/C(=N/NC(=O)c2cccc(F)c2)c2ccc(O)cc2C1 (stereo not drawn),45.8,3.9
CCOC(=O)N1CCN(C(=O)c2ccc3c(=O)n4c(nc3c2)CCCCC4)CC1,31.5,5.0
Cc1ccc2[nH]c(=O)c(CN(CCCN3CCOCC3)Cc3nnnn3C3CCCC3)cc2c1,44.5,-1.0
Nn1c(COc2ccccc2)nnc1SC(F)F,39.3,10.6
O=C(CN(C(=O)CCC(=O)Nc1ccccn1)c1ccc2c(c1)OCO2)NCc1ccco1,48.4,-0.7
CCOCCCNC(=O)c1cc2sc(Cl)cc2n1CC,62.4,-2.6
CCNC(=O)CSc1nc2ccccc2c(=O)n1-c1cc(OC)ccc1OC,30.7,3.0
CCCC/C=C/C(NC(=O)c1ccc(C(=O)OC)cc1)c1ccccc1 (stereo not drawn),31.0,7.4
Clc1ccccc1Cn1nnc2c(NCCN3CCOCC3)ncnc21,88.5,-8.9

# An excerpt of these results, as labelled records.
CC(C)C[C@H]1C(=O)N2CCC[C@H]2[C@]2(O)O[C@](NC(=O)C3C=C4c5cccc6[nH]c(Br)c(c56)C[C@H]4N(C)C3)(C(C)C)C(=O)N12 (stereo partly drawn)
  RmlCD inh mix = 119.1	RmlCD inh mix retest = -22.0

N#Cc1ccsc1NC(=O)CSc1ncn[nH]1
  RmlCD inh mix = 61.4	RmlCD inh mix retest = 0.8

CC(=O)C(C)Oc1cc(C)cc2oc(=O)c(C)c(C)c12 (stereo not drawn)
  RmlCD inh mix = 39.4	RmlCD inh mix retest = -21.2

O=C(CSc1nc2ccncc2[nH]1)Nc1ccccc1C(F)(F)F
  RmlCD inh mix = 43.9	RmlCD inh mix retest = 0.7

# Part of the list above, with two lines to a compound.
# Each structure is followed by: RmlCD inh mix, RmlCD inh mix retest
O=C(CN1CCOCC1)Nc1ccccc1Cl
  38.5, -9.4
COc1cc(C)cc(C(=O)O)c1C1=C(O)c2cccc(O)c2C(=O)C1=O
  i, 7.4
O=C(Nc1sc2c(c1C(=O)NC1CC1)CCCCCC2)c1ccco1
  +, 98.0*

# Next structures:
SMILES,RmlCD inh mix,RmlCD inh mix retest
COc1ccc(CC(=S)N2CCOCC2)cc1,58.9,1.5
CC(=C1C(=O)c2ccccc2C1=O)N1CCN(CCN=Cc2c(O)n(C)c(=O)n(C)c2=O)CC1,37.5,-5.3
Cn1c(/C=N/n2cnnc2)nc2ccccc21,44.5*,106.4*
Clc1ccc2nc3ccccn3c2c1,38.8*,47.7*
OCC1(C2=NOC(O)(C(F)(F)F)C2)CCCCC1 (stereo not drawn),58.1,-0.5
Cc1ccccc1-c1nc(CN2CCC(C(=O)NCCCN3CC(C)CC(C)C3)CC2)c(C)o1 (stereo not drawn),99.6,-0.4
Cc1cccc(N2C(=O)NC3(CCCCC3)C2=O)c1,30.1,-19.0
CCn1c(/C(C#N)=C(\O)CCc2ccccc2)nc2ccccc21,50.3,-3.3
CCCCn1c(SCC2CCCCO2)nc2cc(S(N)(=O)=O)ccc21 (stereo not drawn),123.3,-16.3
O=C(CN1C2CCCC1CC(NC(=O)c1ccco1)C2)Nc1ccccc1C(F)(F)F (stereo not drawn),38.8,-4.7
CCC1=NC(c2ccccc2)N(O)C1(C)C (stereo not drawn),59.4,-0.5
COC(=O)c1ccc(-c2cc(C(=O)O)c3cc4c(cc3n2)OCCO4)cc1,47.5*,84.8*
CCN(CC)Cc1c(O)c(Cl)cc2c(C)c(C)c(=O)oc12,67.9*,119.4*
CC(=O)Nc1ccc2nc(C)n(Cc3ccc(Cl)cc3)c(=O)c2c1,69.6,2.3
Cc1ccc(S(=O)(=O)Cn2nnnc2C(CC(C)C)N2CCN(c3ccc(F)cc3)CC2)cc1 (stereo not drawn),36.4,8.0
OC1(c2cccc(F)c2)CCN(Cc2ccncc2)CC1,162.3,-11.1
CC(C)Cn1c(-c2ccc(C#N)cc2)nc2c1c(=O)[nH]c(=O)n2CC(C)C,31.9*,54.3*
Cc1c(NC(=O)c2cc3ccccc3c(=O)s2)c(=O)n(-c2ccccc2)n1C,46.2,-6.4
CCn1c(SCC(=O)Nc2ccc(NC(=O)c3ccco3)c(OC)c2)nc2ccccc2c1=O,95.0*,.
N#Cc1nc(-c2cccs2)oc1NCC1CCCO1 (stereo not drawn),107.4*,120.2*
N#Cc1ccccc1NC(=O)Nc1ccc(Cl)cc1,40.2*,66.2*
CSc1ccccc1C(=O)N1CCOCC1,150.8,-18.8
Cc1ccc(C2CC(=O)N3CN(Cc4ccco4)CSC3=C2C#N)cc1 (stereo not drawn),72.5,-2.2
Cc1onc(-c2ccccc2Cl)c1C(=O)Nc1cccc(-c2cn3cccnc3n2)c1,42.3,52.6
COC(=O)C1=C(CSc2nc3c(cc2C#N)CN(C)CC3)OC(N)=C(C#N)C1c1ccc(F)cc1 (stereo not drawn),73.2,17.6
SMILES,RmlCD inh mix,RmlCD inh mix retest
CCCCNC(=S)NNC(=O)c1csc(C)c1,57.8,-7.0
Fc1ccc(-c2nnc(Cc3nnc(-c4ccc(F)cc4)o3)o2)cc1,i,0.7
O=c1c2c3c(sc2ncn1/N=C/c1ccco1)CCCC3,95.0,-2.5
C=CCOc1c(Br)cc(CNc2nccs2)cc1OC,47.0,1.3
CN(C(=O)c1cccc(C#N)c1)c1nnc(-c2ccccn2)s1,36.5*,53.8*
CN(C)CCNc1oc(-c2ccccc2F)nc1C#N,46.5*,33.1*
O=C(CC1OC(=O)c2ccccc21)c1ccco1 (stereo not drawn),41.2,-12.5
CCOC(=O)CSc1n[nH]c(NC(=O)c2cccc(C(F)(F)F)c2)n1,32.0,-6.2
O=C(NC1CCCCCC1)C1CCCN(S(=O)(=O)c2cccs2)C1 (stereo not drawn),79.7,-0.1
Cc1cccc(-n2c(N)cc(=O)nc2SC(C)C(=O)NC2CCCCC2)c1 (stereo not drawn),37.5,-11.0
Nc1nc(Nc2cccc(F)c2)nc2ccccc12,76.4,-12.8
CC(=O)N1CC=C2C(C#N)=C(N)C(C#N)(C#N)C(CCc3ccccc3)C2C1 (stereo not drawn),47.0,-5.0
Cc1nc(SCC(=O)N2CCc3ccccc3C2)c2c(C)c(C)sc2n1,57.8,-8.2
COc1ccc(OC)c(C2NC(=O)NC(C)=C2C(=O)Nc2ccc(C)cc2)c1 (stereo not drawn),105.0,2.0
CCc1cc2c(=O)c(-c3nc4ccccc4[nH]3)coc2cc1OC(=O)N1CCOCC1,37.1,6.7
O=C(Oc1ccc2c3c(c(=O)oc2c1)CCCC3)c1ccco1,110.2*,127.7*
Cc1ccc(OCC(O)Cn2c(=N)n(CCN3CCOCC3)c3ccccc32)cc1 (stereo not drawn),35.3,-5.1
COc1ccc(C2/C(=C(/O)c3ccc4c(c3)CC(C)O4)C(=O)C(=O)N2CCN2CCOCC2)cc1 (stereo not drawn),150.8,4.7
Cc1ccc2oc(C(=O)Nc3nnc(C)s3)c(C)c2c1,76.4,8.8
COc1ccc(N2CSC3=C(C#N)C(c4cccs4)CC(=O)N3C2)cc1 (stereo not drawn),33.8,1.8
COC(=O)c1sc2nc(N3CCCCC3)c3c(c2c1N)CC(C)(C)N(C)C3,37.2*,116.6*
FCCCOc1ccc(-c2nccc(-c3ccc(Br)cc3)n2)cc1,43.7,8.9
O=C(CSc1nnc(-c2cnccn2)n1Cc1ccco1)c1ccccc1,44.6,-1.9
COCCNC(=O)c1c(N)n(CCCn2ccnc2)c2nc3ccccc3nc12,124.1*,40.5*
CCCN(CCC)C(=O)c1ccc2c(c1)OCO2,63.4,-9.8
SMILES,RmlCD inh mix,RmlCD inh mix retest
CC(OC(=O)C1CC=CCC1C(N)=O)C(Cl)=C(Cl)Cl (stereo not drawn),90.6,-4.7
CC(C)CCNC(=O)NC(=O)COc1ccccc1C#N,48.2,1.5
O=C(c1ccc2c(=O)n(Cc3ccco3)c(=S)[nH]c2c1)N1CCN(Cc2ccccc2)CC1,36.2,-3.6
Nc1ccc2nc(-c3ccccc3)sc2c1,147.9,-83.0
O=C(OCc1ccccn1)c1ccc(COc2ccccc2Cl)o1,i,5.9
CCOc1ccc(NC(=O)c2cc3cc4ccc(OC)cc4nc3o2)cc1,105.1*,.
N#Cc1c(-c2ccco2)cc(-c2ccccn2)nc1N,46.5*,189.1*
CC(=O)Cc1nsc(NC(=O)c2ccc(-c3cccc(C(F)(F)F)c3)o2)n1,62.4,-3.0
CCOC(=O)Oc1ccc2oc(=O)cc(C)c2c1,61.2,-3.6
Fc1ccc(CSc2nnc(-c3cc4c(s3)-c3ccccc3CC4)o2)cc1,i,45.5
NCCCP(=O)(O)CCc1ccccc1,70.0,-5.7
CCOc1ccc2nc(NC(=O)CSc3ccc(Cl)cc3)sc2c1,96.4,-8.0
CCC(=O)OC1(C)C(=O)C=C2C=C(c3ccc(C#N)cc3)OC=C2C1=O (stereo not drawn),49.6,0.2
C=Cc1c(C)c2cc3[nH]c(cc4nc(cc5nc(cc1[nH]2)C(C)=C5CCC(=O)O)C(CCC(=O)O)=C4C)c(C)c3C=C,42.9*,47.6*
Cc1occc1C(=O)n1cnc2ccccc21,30.4,-11.2
Cn1nc(-c2ccccc2)c(-c2nc(-c3ccccc3Cl)no2)c1Cl,i,-8.4
Oc1sc(C=Nc2ccccc2)c2ccccc12,70.0,-2.3
Cc1ccc(NC(=O)CCSc2nnc(C)s2)cc1,89.2,-11.7
CC1(OC(=O)C2CCCC2)C(=O)C=C2C=C3CCCCN3C=C2C1=O (stereo not drawn),35.1,-22.6
COC(=O)c1[nH]c2ccc(C)cc2c1NC(=O)CCN1CCN(Cc2ccc3c(c2)OCO3)CC1,34.4,-4.1
COCCn1nnnc1SCC(=O)N1CCCCC1,43.1,-9.5
CCCCOC(=O)c1[nH]c2c(c1C)C(=O)CC(c1cc(OC)c(OC)c(OC)c1)C2 (stereo not drawn),49.7,3.7

# Part of the list above, with bars between the fields.
compound | RmlCD inh mix | RmlCD inh mix retest
N#Cc1c(-c2ccco2)cc(-c2ccccn2)nc1N | 46.5* | 189.1*
CC(=O)Cc1nsc(NC(=O)c2ccc(-c3cccc(C(F)(F)F)c3)o2)n1 | 62.4 | -3.0

# High-throughput results as filed in PubChem.
